Screens from PubChem.
UUG fidelity: modulators of yeast start codon fidelity, primary screen, whole organism, S. cerevisiae, single point, plate reader; S. cerevisiae UUG-firefly luciferase reporter, luminescence/redox ratio; activity score, % at 18.7 µM; 350,000 tested, 0.13% active; AID 602363, 2012;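 active means replicate mean at a twofold rise or more, about +100% in these data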;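 further: firefly luciferase made from a UUG start codon reports start codon fidelity; reporter light over untreated wells divided by growth signal over untreated wells; some hits fall short of that in this replicate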
MT1-MMP act inh: blockers of MT1-MMP proenzyme processing, primary screen, HT1080 RFP-PRO-GFP cells, GFP/RFP fluorescence | Matrix metalloproteinase-14 (Homo sapiens), P50281 | GFP/RFP ratio fluorescence, overnight; percent of plate control window, DMSO zero | GFP/RFP ratio change, % at 20 µM | 360,000 tested, 0.061% active | AID 651647, 2012;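 active means GFP/RFP ratio change of at least 30% with cell ATP level not reduced by more than half and red fluorescence within 50% of control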; further: strong numbers were not always called active
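Test system: HT1080 RFP-PRO-GFP cells; Benchmarks: DMSO and RFP-L50D-GFP cell wells; Timing: cells overnight before dosing, compound overnight, 37 °C, 5% CO2; Compound: one 20 µM compound dose with 1% DMSO; Read-out: GFP/RFP fluorescence ratio.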
MT1-MMP act inh RFP: recorded beside MT1-MMP act inh, whose call it bears; RFP signal change, %; measured here: RFP expression control read;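 0 = vehicle wells; hits needed this value within 50% of zero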
Starred values were filed as active, the others as inactive; & = joins results of further samples. These rows are one share of the data; rates above refer to the full screens.

Values run as follows: UUG fidelity | MT1-MMP act inh | MT1-MMP act inh RFP
COc1ccc(C(=O)OCC(=O)Nc2ccc3c(c2)OCCO3)c(OC)c1
 : -3 | -3 | 3
CCN(c1ccc(C(=O)CN2C(=O)NC3(CCOc4ccccc43)C2=O)cc1)S(C)(=O)=O (stereo unspecified)
 : -4 | -4 | 3
CCN(CC)C(=O)C1=C(C)N(CCCN2CCCC2=O)C(=O)C(CC(=O)NCCc2ccccn2)C1 (stereo unspecified)
 : -23 | 4 | 8
CCOc1ccccc1NC(=O)COC(=O)C(Cc1ccccc1)NC(=O)c1ccco1 (stereo unspecified)
 : 3 | 2 | 3
COCCNC(=O)C1CCCN(C(=O)c2sc(-c3ccccc3)nc2C)CC1 (stereo unspecified)
 : -16 | -1 | 6
O=C(COc1ccccc1[N+](=O)[O-])NCCCN1CCCC1=O
 : -6 | 0 | 1
O=C(Nc1cccc(S(=O)(=O)N2CCOCC2)c1)C1CCCC1
 : -12 | 1 | 2
CCCCN(C(=O)COC(=O)c1sccc1C)c1c(N)n(CCC)c(=O)[nH]c1=O
 : -15 | 0 | 4
O=C(Nc1c(-c2ccc3c(c2)OCO3)[nH][nH]c1=O)c1ccc2c(c1)OCO2
 : -5 | 8 | 4
Cn1c(=O)[nH]c2c(c(C(=O)O)nn2C)c1=O
 : 4 | -4 | -6
O=C(NCCN1CCOCC1)c1cccc(S(=O)(=O)Nc2ccc(F)cc2)c1
 : -17 | -1 | 1
CC(C)COc1cccc(C(=O)N2CCN(C(=O)c3ccco3)CC2)c1
 : 4 | 4 | 2
O=C(CNC(=O)c1ccc(Br)o1)NNC(=O)c1ccc(Cl)cc1
 : -14 | 3 | 4
CCOC(=O)c1c(C)[nH]c(C(=O)OCC(=O)NCc2ccc(F)cc2)c1C
 : -18 | -2 | -1
ON=C(c1ccccc1)c1ccc2c3c(cccc13)CC2
 : -20 | -4 | -3

Entries above containing a halogen:
Values run as follows: UUG fidelity | MT1-MMP act inh | MT1-MMP act inh RFP
O=C(NCCN1CCOCC1)c1cccc(S(=O)(=O)Nc2ccc(F)cc2)c1
 : -17 | -1 | 1
O=C(CNC(=O)c1ccc(Br)o1)NNC(=O)c1ccc(Cl)cc1
 : -14 | 3 | 4
CCOC(=O)c1c(C)[nH]c(C(=O)OCC(=O)NCc2ccc(F)cc2)c1C
 : -18 | -2 | -1

Next section.
Values run as follows: UUG fidelity | MT1-MMP act inh | MT1-MMP act inh RFP
CCOC(=O)/C(=C(/C)N)C1CC(=O)NC1=O (stereo unspecified)
 : -9 | -6 | 7
COc1ccc(S(=O)(=O)N2CCCCC2)cc1NC(=O)CNc1ccc(F)cc1C
 : -5 | 6 | -3
COc1ccccc1CNS(=O)(=O)CCNCc1ccco1
 : -9 | 2 | 5
CC(=O)c1ccc(OCCCC(=O)Nc2ccc(Cl)c(S(=O)(=O)N3CCOCC3)c2)cc1
 : -3 | 36 | -25
O=c1cc(S(=O)(=O)Cc2ccccc2)[nH]c(=O)[nH]1
 : -5 | 10 | 0
Cc1ccc(NC(=O)CNC(=O)c2ccc(OC(F)F)cc2)cc1S(=O)(=O)N1CCCCCC1
 : -8 | 2 | -12
CC(C)C(=O)COc1c2occc2cc2ccc(=O)oc12
 : -16 | 8 | 4
O=C(NCc1ccc(C(F)(F)F)cc1)c1cccc2c(-c3ccc(F)c(F)c3)coc12
 : -4 | 7 | -4
CC(=O)Nc1ccc(C=CC(=O)c2ccc([N+](=O)[O-])cc2)cc1
 : 2 | 1 | -6
CC(C)(C)S(=O)N1Cc2cc(CO)cc(-c3ccccc3)c2[C@@H]1CCO (stereo partly specified)
 : -10 | -7 | 3
COc1cccc(/C=C/C(=O)OCC(=O)c2c[nH]c3ccccc23)c1
 : -9 | 5 | 3
O=C(NCCc1ccccc1F)c1[nH]c(C(F)(F)F)nc1-c1ccccc1
 : -10 | -2 | -11
c1ccc(Oc2ncnc3ccccc23)cc1
 : -22 | -1 | 1
Cc1ccc(OCCNC(=O)c2cccc(S(=O)(=O)N3CCN(Cc4ccccc4)CC3)c2)cc1
 : -14 | 1 | -13
O=C1NC(=O)c2cc3ccccc3cc21
 : -7 | 0 | 3

Sorted by count of non-hydrogen atoms (largest number first): 17 of the compounds above.
Values run as follows: UUG fidelity | MT1-MMP act inh | MT1-MMP act inh RFP
Cc1ccc(OCCNC(=O)c2cccc(S(=O)(=O)N3CCN(Cc4ccccc4)CC3)c2)cc1
 : -14 | 1 | -13
Cc1ccc(NC(=O)CNC(=O)c2ccc(OC(F)F)cc2)cc1S(=O)(=O)N1CCCCCC1
 : -8 | 2 | -12
CC(=O)c1ccc(OCCCC(=O)Nc2ccc(Cl)c(S(=O)(=O)N3CCOCC3)c2)cc1
 : -3 | 36 | -25
O=C(NCc1ccc(C(F)(F)F)cc1)c1cccc2c(-c3ccc(F)c(F)c3)coc12
 : -4 | 7 | -4
COc1ccc(S(=O)(=O)N2CCCCC2)cc1NC(=O)CNc1ccc(F)cc1C
 : -5 | 6 | -3
CCCCN(C(=O)COC(=O)c1sccc1C)c1c(N)n(CCC)c(=O)[nH]c1=O
 : -15 | 0 | 4
COCCNC(=O)C1CCCN(C(=O)c2sc(-c3ccccc3)nc2C)CC1 (stereo unspecified)
 : -16 | -1 | 6
CCOC(=O)c1c(C)[nH]c(C(=O)OCC(=O)NCc2ccc(F)cc2)c1C
 : -18 | -2 | -1
CC(C)COc1cccc(C(=O)N2CCN(C(=O)c3ccco3)CC2)c1
 : 4 | 4 | 2
COc1cccc(/C=C/C(=O)OCC(=O)c2c[nH]c3ccccc23)c1
 : -9 | 5 | 3
O=C(Nc1cccc(S(=O)(=O)N2CCOCC2)c1)C1CCCC1
 : -12 | 1 | 2
COc1ccccc1CNS(=O)(=O)CCNCc1ccco1
 : -9 | 2 | 5
CC(C)C(=O)COc1c2occc2cc2ccc(=O)oc12
 : -16 | 8 | 4
O=c1cc(S(=O)(=O)Cc2ccccc2)[nH]c(=O)[nH]1
 : -5 | 10 | 0
c1ccc(Oc2ncnc3ccccc23)cc1
 : -22 | -1 | 1
CCOC(=O)/C(=C(/C)N)C1CC(=O)NC1=O (stereo unspecified)
 : -9 | -6 | 7
O=C1NC(=O)c2cc3ccccc3cc21
 : -7 | 0 | 3

Next structures.
Values run as follows: UUG fidelity | MT1-MMP act inh | MT1-MMP act inh RFP
O=C1C=C(CCc2ccccc2)CCC1
 : 4 | -1 | -1
COc1ccc(C(=O)NCc2ccc3c(c2)OCO3)cc1S(=O)(=O)N1CCCC1
 : -8 | 3 | 2
Cc1ccc([C@H]2C[C@@H](n3cc(-c4ccc(F)cc4)nn3)[C@H](O)CN2Cc2cccs2)cc1
 : -2 | 7 | -1
COc1ccc(-c2coc3cc(OC)ccc3c2=O)cc1
 : -4 | 6 | -7
Cc1ccc(S(=O)(=O)/N=C2\C=C(NS(=O)(=O)c3ccccc3)C(=O)c3ccccc32)cc1
 : -9 | 13 | 11
Cc1ccc2c(c1)CCCN2C(=O)CCc1nc2ccccc2c(=O)[nH]1
 : -4 | -8 | -13
CCCCCN(C(=O)CCC(=O)OCC(=O)N1CCCCC1CC)c1c(N)n(CCCC)c(=O)[nH]c1=O (stereo unspecified)
 : -3 | -5 | 0
COc1ccc(NC(=O)C[C@H]2C(=O)N(c3ccc(Br)cc3)C[C@@H]2C)cc1
 : -1 | -3 | -15
C[C@H](O)CNC(=O)c1[nH]cnc1C(=O)Nc1cccc(Cl)c1
 : -16 | 0 | 1
O=C(N/N=C/c1ccc(O)c(O)c1)c1ccc(-n2cnnn2)cc1
 : -31 | 2 | 3
O=c1[nH]c2nc(Cl)nc(Cl)c2[nH]1
 : -14 | 3 | 3
CC1(c2ccc3c(c2)OCCO3)NC(=O)N(CC(=O)Nc2ccccc2)C1=O (stereo unspecified)
 : -5 | 0 | -1
CCOc1ccc(NC(=O)CN(C)C(=O)C2CCN(C(=O)c3ccc(Cl)cc3)CC2)cc1OCC
 : 7 | 12 | -1
CC(NC(=O)COC(=O)CNC(=O)C1CCCCC1)c1ccccc1 (stereo unspecified)
 : 5 | 3 | 2
C=C(C)C(COc1c2occc2cc2ccc(=O)oc12)OC(C)(C)C(O)COc1c2occc2cc2ccc(=O)oc12 (stereo unspecified)
 : -19 | 1 | -1
CCN(C(=O)COC(=O)c1cc(=O)[nH]c2ccccc12)c1c(N)n(Cc2ccccc2)c(=O)[nH]c1=O
 : 19 | -1 | 2
CC1(C2CC2)NC(=O)N(CC(=O)Nc2ccc(F)cc2F)C1=O (stereo unspecified)
 : -19 | 2 | 3
Nc1cccc(-c2c[nH]c3ncc(-c4cccnc4)cc23)c1
 : -14 | -13 | -19
CCC1CCC2(CC1)NC(=O)N(CC(=O)Nc1cccc(S(=O)(=O)N(C)c3ccccc3)c1)C2=O (stereo unspecified)
 : -17 | 9 | -7
C[C@H](NC(=O)c1ccccc1Cl)C(=O)OCC(=O)N1CCN(c2ccccc2)CC1
 : 8 | 1 | 1
CC(C)NC(=O)N(C)C[C@@H]1OCc2cnnn2CCCC(=O)N([C@@H](C)CO)C[C@H]1C
 : -8&19 | 0 | 4
O=C(NC(=S)N1CCOCC1)c1cn(-c2ccccc2)nc1-c1ccc(F)cc1
 : -18 | 4 | 2
Nc1nnc(SCC(=O)Nc2cc(S(=O)(=O)N3CCOCC3)ccc2N2CCCC2)s1
 : -16 | 1 | 4
Cc1ccc(S(=O)(=O)SCCCSS(=O)(=O)c2ccc(C)cc2)cc1
 : -24 | 2 | 8
CN(Cc1nc2ccccc2c(=O)[nH]1)C(=O)c1cc(-c2ccc(Br)cc2)nc2ccccc12
 : 2 | 0 | -5
COc1ccc(NC(=O)COc2ccccc2Cc2ccccc2)cn1
 : 3 | 2 | -6
CC12CCC(=O)N1C(C(=O)NNC(=O)c1ccc(Br)cc1)CS2 (stereo unspecified)
 : -19 | -3 | -2
CC(NC(=O)CN1CCN(CC(=O)Nc2ccccc2Cl)CC1)c1ccc(Br)cc1 (stereo unspecified)
 : -13 | 3 | -7
COc1ccc(C(C)NC(=O)C2CCN(CCOc3ccc(Cl)cc3Cl)CC2)cc1OC (stereo unspecified)
 : -11 | 1 | -5
NC(=O)c1cccc(-c2cnc(N)c(C(=O)c3cccnc3)n2)c1
 : -12 | -20 | -3
CCN(C(=O)CSc1nc(C)nc2sc(C)c(C)c12)C1CCS(=O)(=O)C1 (stereo unspecified)
 : -12 | 1 | -10
Nc1cccc2cccc([N+](=O)[O-])c12
 : -14 | -78 | 12
CSCCC(NS(=O)(=O)c1ccc(C)cc1)C(=O)NCC(C)(C)N1CCOCC1 (stereo unspecified)
 : -3 | -2 | 3
C[C@@H]1CN([C@H](C)CO)C(=O)CCCn2nncc2CO[C@H]1CN(C)C(=O)c1ccc2ccn(C)c2c1
 : 3&-12 | 3 | 3
Cc1cc(CNC[C@H]2O[C@@H](n3ccc(=O)[nH]c3=O)[C@H](O)[C@@H]2O)no1
 : -19 | 4 | 5
O=C1Cn2nnc(-c3ccccc3)c2C2c3ccccc3CCN12 (stereo unspecified)
 : -9 | 4 | -3
CCOC(=O)C1CCCN(C(=O)c2ccc(C)c(S(=O)(=O)N3CCCCC3)c2)C1 (stereo unspecified)
 : 0 | 7 | -7
COc1cc(C(=O)N2CCN(C(=O)C3CCCO3)CC2)cc(OC)c1OC (stereo unspecified)
 : -12 | 1 | 5
CCC(=O)Nc1ccc(S(=O)(=O)NC[C@H]2O[C@@H](n3cc(C)c(=O)[nH]c3=O)C[C@@H]2O)cc1
 : -2 | 2 | 5
CC1CC(C)CN(C(=O)c2cccc(S(=O)(=O)N3c4ccccc4CC3C)c2)C1 (stereo unspecified)
 : 16 | -8 | -16
Cc1ccccc1C(=O)Nc1ccc(S(=O)(=O)NCC2CCCO2)cc1 (stereo unspecified)
 : -13 | 1 | -10
COc1cc(S(=O)(=O)N(C)Cc2ccc3c(c2)OCCO3)ccc1NC(C)=O
 : -3 | 3 | 2
Cc1cccc(CN(Nc2ccccc2)c2ccccc2)n1
 : -6 | -7 | 3
Cc1ccc(N2C(=O)N(CC(=O)Nc3ccccc3C(F)(F)F)C(=O)C2C)cc1 (stereo unspecified)
 : 11 | -2 | -2
CCOC(=O)c1ccn(CSc2c(F)c(F)cc(F)c2F)n1
 : -5 | 2 | 3
O=C(NNC(=O)c1ccc2ccccc2c1)c1ccc(Cl)c(Cl)c1
 : -7 | 3 | 3
Cc1cccc(OCCC(=O)Nc2ccc(N3CCOCC3)cc2N2CCOCC2)c1
 : 0 | 1 | 3
Cc1ccc(S(=O)(=O)Nc2cc(S(=O)(=O)N3CCOCC3)ccc2NCC2CCCO2)cc1 (stereo unspecified)
 : 1 | -4 | -4
